Screens as filed in PubChem.
miR-21 reporter: miR-21 reporter, rising signal; HeLa miR-21 FLuc reporter, luciferase, 48 h; Potency, µM (top dose mostly 38.3 µM), for inactives: at the highest dose reporter change, positive = more light; 340,000 tested, under 10 active; AID 2288; active = well fitted rising curve with a large enough effect; inconclusive = small, poorly fitted or top-dose-only effect; inactive = no such curve, though single readings can be large or run the other way;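 also: % of control where 0% means no effect; miR-21 action dims this reporter so a rising signal means less miR-21 action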
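HeLa miR-21-FLuc reporter line, endogenous miR-21; 2000 cells/well in DMEM/10% FBS; compound titration up to ~40uM final, 48 h, 37 degree Celsius; luciferase detection reagent, 15 min lysis, CCD luminescence.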
GLA inh pH 4.5: blocks human alpha-galactosidase A at pH 4.5. P06280. AID 1467. 230,000 tested, under 10 active. purified enzyme, 4-MU-alpha-Gal fluorescence, pH 4.5. activity change, negative = inhibition, % at 105 µM; inconclusive = small, poorly fitted or top-dose-only inhibition, or a rising curve; inactive = flat fitted curve, though single readings scatter; no compound was filed as active;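 also: 0% = full activity with enzyme and -100% = basal without enzyme; dose as in the result columns while the protocol names 77 µM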
Target sequence (P06280 whole entry, looked up): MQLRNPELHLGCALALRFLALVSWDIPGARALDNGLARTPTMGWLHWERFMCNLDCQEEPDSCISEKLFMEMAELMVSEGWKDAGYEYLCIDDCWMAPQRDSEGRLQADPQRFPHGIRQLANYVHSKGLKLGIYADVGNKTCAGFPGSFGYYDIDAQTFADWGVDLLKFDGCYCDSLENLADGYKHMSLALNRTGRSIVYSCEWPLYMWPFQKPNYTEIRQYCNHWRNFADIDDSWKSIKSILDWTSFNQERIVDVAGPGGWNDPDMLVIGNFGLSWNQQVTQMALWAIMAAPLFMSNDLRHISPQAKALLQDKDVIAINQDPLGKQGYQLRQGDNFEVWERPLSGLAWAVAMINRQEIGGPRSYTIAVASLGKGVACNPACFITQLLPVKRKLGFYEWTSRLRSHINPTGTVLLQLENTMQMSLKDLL
Rango release inh: prevents RanGTP from dissociating the Rango-importin beta complex | O95149+P62826 | Biochemical FRET Rango-importin beta, RanGTP-induced dissociation | Potency, µM (series often up to 46.1 µM), without a hit: at the highest dose activity change, negative = inhibition | 0.071% of 340,000 active | AID 540253; active means falling FRET ratio curve, often poorly fitted, with flat reads before Ran was added; inconclusive means other falling curves, or compound fluorescence or quenching; inactive means flat or rising ratio curve;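 also: potency is read from the fitted curve at half-maximal effect; % of control where 0% means no effect; nearly all actives have a fitted effect of over 45% in size; -100% = wells without RanGTP and RCC1; the record marks most hits as doubtful in a second field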
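Quantitative HTS using a FRET biosensor: 0.1 uM Rango, 0.25 uM importin beta, 0.6 uM Ran, 2 mM GTP, 0.2 uM RCC1 final, PBS with DTT, Tween-20 and BSA. Post-read taken 45 min after Ran addition.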
Rango complex inh: inhibitors of Rango-importin beta complex formation | Q14974 | Rango CFP/YFP FRET sensor + importin beta, 45 min | Potency, µM (series often up to 92.2 µM), for the others: at the highest dose inhibition of complex formation | 0.031% of 340,000 active; active = rising FRET ratio curve, often small or poorly fitted; inconclusive = mostly compound fluorescence or quenching in the first reads; inactive = flat curves in all reads;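 also: potency is read from the fitted curve at half-maximal effect; 0% = DMSO wells and 100% = buffer wells lacking importin beta; nearly all actives have a fitted effect of over 15% in size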
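Inhibition scored from the CFP 486 nm/YFP 530 nm FRET ratio 45 min after adding 0.125 microM importin beta to 50 nM Rango biosensor preincubated 5 min with compound (room temperature, PBS with DTT, Tween-20, BSA). No-importin wells as positive control.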
* = called active by the depositor; ? = inconclusive; nt = not tested or not shown; & = joins results of further samples; [ ] = dose if it differs, or a comment.

SMILES	miR-21 reporter	GLA inh pH 4.5	Rango release inh	Rango complex inh
Clc1ccc(C2[C@H]3CN(Cc4cccnc4)[C@H](c4ccccc4)C34CC2(c2ccccc2)C4)cn1 (stereo partly drawn)	19.4%	-0.3&-7.6	-2.3%	1.7%
Cc1ccc(Cl)cc1NC(=O)c1cnn2c1NC(c1ccco1)CC2C(F)(F)F (stereo not drawn)	13.5%	-3.1	-25.0%	-3.8%
O=C(/C=C\c1ccco1)Oc1cccc2cccnc12	4.8%	2.9[21.1 µM]	-11.4%	-2.4%
CCc1ccccc1NC1c2ccccc2C(=O)N1c1cc(C)ccn1 (stereo not drawn)	-6.2%	-10.6	5.0%	-2.0%
CNC(=S)N1N=C2c3ccccc3CCC2C1c1ccccc1Cl (stereo not drawn)	2.5%	-7.1	-0.2%	0.9%
CC1CCCCC1NC(=O)C1CCC(CNc2c(N3CCCCC3)c(=O)c2=O)CC1 (stereo not drawn)	-2.2%	1.6	2.1%	-0.9%
CC(=O)c1c(C)[nH]c(C(=O)N2CCN(c3cc(Cl)ccc3C)CC2)c1C	8.8%	0.9	4.1%	-0.2%
Cn1c(C(O)c2ccc(Cl)cc2)nc(Cl)c1Cl (stereo not drawn)	6.0%	-2.9	-9.2%	-4.4%
C=CCOc1ccc(C2C(C(=O)c3cccs3)=C(O)C(=O)N2c2nnc(C)s2)cc1 (stereo not drawn)	nt	nt	?	?
COc1ccc(CC(=O)NCC2CCCN(Cc3cccc(SC)c3)C2)cc1 (stereo not drawn)	0.3%	nt	4.2%	0.5%
O=C(O)/C=C/C(=O)Nc1ccc(-c2ccccc2)cc1	-42.8%&-34.1%	0.1&-0.6	40.2%	0.7%
CCCCC1(CC)SCC(=O)NC1=O (stereo not drawn)	nt	nt	-15.4%	5.9%
C[C@@H](CSc1ccccc1)CN1CC[C@H](C(C)(C)C)CCC1=O	2.0%	nt	-11.8%	-0.9%
O=C(O)C/C(=C\c1cc(Cl)c2c(c1)OCO2)c1nc2ccccc2s1	0.4%	nt	-20.2%	?
C[C@@H]1O[C@@H](OC[C@H]2O[C@@H](Oc3c(-c4ccc(O)c(O)c4)oc4cc(O)cc(O)c4c3=O)[C@H](O)[C@@H](O)[C@@H]2O)[C@H](O)[C@H](O)[C@H]1O	-8.1%	-5.9	0.0%	5.1%
CN1CCN(c2nc(-c3ccccc3O)nc3ccccc23)CC1	3.7%	nt	-5.7%	-0.2%
O=C(COC(=O)CNC(=O)c1cccc(F)c1)NCCC1=CCCCC1	-5.4%	-7.5	2.2%	-2.8%
CC(OC(=O)c1ccccn1)C(=O)Nc1nc(-c2ccc(F)c(F)c2)cs1 (stereo not drawn)	nt	nt	-9.5%	5.1%
O=S(=O)(NCc1ccccc1)c1ccccc1NCCc1ccccc1	nt	nt	2.8%	-0.1%
O=S(=O)(/N=C(/c1ccccc1)N1CCOCC1)c1ccc(F)cc1F	nt	nt	20.0%	-2.1%

Brought forward from above: two entries, then new ones.
SMILES	miR-21 reporter	GLA inh pH 4.5	Rango release inh	Rango complex inh
O=S(=O)(NCc1ccccc1)c1ccccc1NCCc1ccccc1	nt	nt	2.8%	-0.1%
O=S(=O)(/N=C(/c1ccccc1)N1CCOCC1)c1ccc(F)cc1F	nt	nt	20.0%	-2.1%
COc1ccccc1-c1nnc(SC(C)C(=O)NCC2CCCO2)n1C (stereo not drawn)	nt	nt	5.0%	0.1%
O=C(CSc1ncccn1)Nn1cnnc1	0.1%	5.3	-4.1%	4.5%
O=C(NCCc1ccccc1Cl)c1cc(COc2ccc(F)cc2F)on1	nt	nt	-6.4%	2.3%
CC(C)C[C@H](NC(=O)N1CCN(c2ccccc2)CC1)C(=O)O	-4.3%	5.5	-1.9%	2.4%
C=CCn1c(SCc2cccnc2)nnc1-c1ccncc1	0.3%	0.2	3.1%	0.3%
O=C(Nc1ccc(Br)cc1F)c1ccc2c(c1)OCCO2	4.5%	nt	-9.9%	2.2%
O=C1C2C3C=CC(C4CC34)C2C(=O)N1/N=C/c1ccc([N+](=O)[O-])s1 (stereo not drawn)	-11.9%	-6.7	-7.0%	-2.1%
COC(=O)c1cc(C(=O)NC(C)(C)CC(C)(C)C)cc([N+](=O)[O-])c1	-2.1%	4.2	18.6%	-0.3%
N=c1oc2ccccc2cc1C(=O)Nc1ccccc1	-53.6%	nt	1.4%	-4.1%
C/C(N)=C(/C#N)C(=O)COC(=O)CCS(=O)(=O)c1ccccc1	-0.3%	-3.1	2.0%	1.6%
O=C(Nc1ccccc1)Nc1nnc(-c2ccccc2)o1	-8.2%	0.0	1.9%	3.2%
CCOC(=O)c1[nH]c(C)c(C(=O)NCCC2=CCCCC2)c1C	-22.5%	-4.6	-0.2%	1.2%
CC(C)c1nc2oc3c(=O)[nH]cnc3c2c2c1COC(C)(C)C2	-3.3%	2.1	-13.7%	3.9%
O=C(Nc1ccc([N+](=O)[O-])cc1Br)c1cccnc1	-8.1%	-1.4	-2.6%	-1.1%
O=C(N/N=C/c1ccco1)c1cc(=O)[nH]c2ccccc12	4.6%	-1.4	-11.4%	0.2%
CCCCNc1c([N+](=O)[O-])c(=O)n(C)c2ccccc12	-4.1%	2.0	-6.7%	-2.5%
COCC(C)n1c(C)cc(C(=O)COC(=O)c2c(NC(C)=O)sc(C)c2C)c1C (stereo not drawn)	1.5%	3.0	-12.8%	0.8%
Cc1cc(NC(=O)CN2C(=O)NC3(CCCCC3C)C2=O)no1 (stereo not drawn)	-4.1%	2.2	-2.4%	-1.8%
COc1ccccc1OCCSc1nc2ccccc2n1CC(O)CO (stereo not drawn)	-10.4%	nt	2.9%	-1.7%
Cc1ccc(C2CCN(C(=S)Nc3cccc(C)c3)C2)cc1 (stereo not drawn)	-27.3%	-24.1	26.3%	-3.8%
Cc1cccc(NC(=O)CSc2nnc(NC(=O)C3CCC3)s2)c1	-3.9%	nt	0.1%	-0.2%
CC(=O)c1sc(NC(=O)COc2ccc(Br)cc2)nc1C	-3.7%	-7.6	-5.1%	0.2%
Cc1ccc(NC(=O)c2nnn(-c3ccc4c(c3)OCCO4)c2N)cc1	-7.4%	nt	29.4%	-1.5%
O=C1CCCN1c1ccc(S(=O)(=O)N2CCN(c3ccccc3)CC2)cc1	1.1%	-10.4	14.7%	-1.2%
Cc1cccc(CN2CCN(C(=O)CCl)CC2)c1	?	-5.7	-10.1%	2.5%
CCOC(=O)CN1C(=O)S/C(=C/C=C/c2ccc(N(C)C)cc2)C1=O	-23.1%	-19.3	11.8%	5.8µM*
O=C(c1c(F)cccc1F)N1CCN(c2ncccn2)CC1	-0.1%	9.7	11.1%	6.1%
Cc1ccc(N=Cc2cc(Br)cc(Cl)c2O)cc1	-2.3%	-4.9	?	?
COC(=O)CNC(=O)CN1C(=O)NC2(CCCc3ccccc32)C1=O (stereo not drawn)	2.0%	nt	12.2%	4.8%
COc1ccc(-c2cn(Cc3ccc(C(N)=O)cc3)c(-c3ccc(Cl)nc3)n2)cc1	nt	nt	8.4%	6.1%
Cc1ccc(C(=O)Nc2ccccc2C(=O)NC(C(=O)O)C(C)C)cc1 (stereo not drawn)	-47.5%	nt	8.5%	1.1%
COc1cccc(-c2ccc(NC(=O)C3CCCN(Cc4cnn(C)c4C)C3)cc2)c1 (stereo not drawn)	-0.2%	nt	-5.3%	-1.0%
CCCCN(C)C(=O)CCC(=O)Nc1ccc2nc(N3CCN(C)CC3)cc(C)c2c1	-5.0%	19.9	1.0%	0.2%
COc1ccc(N(CC(=O)NCc2ccccc2)S(=O)(=O)c2c(C)n[nH]c2C)cc1	-4.4%	nt	10.8%	0.5%
CN[C@H](C(=O)NC[C@H]1O[C@@H](n2cnc3c(N)ncnc32)[C@H](O)[C@@H]1O)[C@@H](C)OCc1ccccc1	nt	nt	12.4%	3.6%
CCn1c(/C=C/N(C(C)=O)c2ccccc2)[n+](CCCS(=O)(=O)[O-])c2cc(Cl)c(Cl)cc21	-3.9%	-0.4	18.3%	-2.8%
O=C1Nc2ccc(Br)cc2C1(O)Cc1ccccn1 (stereo not drawn)	-0.4%	2.9	1.1%	-5.9%
COc1ccccc1OCCCCNCCO	-6.8%	-12.2	5.6%	-1.1%
CCN(CC)C(=O)Cn1c(=O)n(CCCC(=O)NCc2ccc3c(c2)OCO3)c(=O)c2sccc21	-3.9%	nt	2.6%	-0.3%
COc1ccc(/C=N/Nc2nn3cnnc3c3ccccc23)cc1	5.6%	-12.9	2.4%	0.2%
O=C(NCC1([N+](=O)[O-])CN(C(=O)c2ccccc2)CN(C(=O)c2ccccc2)C1)c1ccccc1	-1.2%	-1.2	-4.1%	-1.4%
O=C(NCc1ccc2c(c1)OCO2)c1ccc(N2CCCCCC2)c([N+](=O)[O-])c1	-25.5%	-8.3	1.5%	3.7%
N#Cc1c(-c2ccc(F)cc2)nc(-c2ccccc2)[nH]c1=O	-2.8%	2.2	9.1%	0.1%
O=C(Nc1ccc2c(c1)OCCO2)c1ccco1	-30.8%	0.0	-5.8%	?
COc1cc(C2OCC3C(c4cc(OC)c(OC)c(OC)c4)OCC23)cc(OC)c1OC (stereo not drawn)	6.3%	-5.3	-15.3%	0.0%
O=c1cc(N2CCOCC2)[nH]c(=O)n1-c1ccc(Br)cc1	-12.5%	-4.9	13.2%	7.6%
CN1CCN(S(=O)(=O)c2cccc(C#N)c2)C(c2ccccc2)C1 (stereo not drawn)	nt	nt	-5.8%	3.2%
O=C1Nc2ccccc2C12Nc1ccccc1-c1nc3ccccc3n12 (stereo not drawn)	17.8%	2.5	7.0%	0.5%
CCc1cccc(OCC(=O)Nc2ccc(S(=O)(=O)N3CCCC3)cc2)c1	3.6%	nt	-6.4%	-0.7%
O=C(O)CCC(=O)N1CCC(C(=O)c2cccc(Cl)c2)CC1	-1.5%	6.3	1.3%	-0.6%

More compounds follow:
SMILES	miR-21 reporter	GLA inh pH 4.5	Rango release inh	Rango complex inh
O=C(Cc1nn[nH]n1)Nc1ccc(F)cc1F	-1.4%	-11.3	-6.1%	-3.9%
CCSC1(SCC)N=C(N)C2(C#N)C(c3ccccc3)NC(C)=C(C)C12C#N (stereo not drawn)	-3.3%	-4.1	1.4%	-1.1%
COC(=O)c1sc(NC(=O)CSc2nnnn2-c2ccc(C)cc2C)nc1C	0.1%	1.1	75.1%	0.9%
CC(C1CC1)N(Cc1ccccc1)C(=O)NC(=O)c1ccc(F)cc1 (stereo not drawn)	-0.6%	0.6	3.1%	0.5%
COc1cc(/C=C/C(=O)OCC(=O)N2CC(=O)Nc3ccccc32)ccc1O	0.3%	-2.2	?	?
CC(Sc1nnc(CN2CCCC2)n1Cc1ccccc1)C(=O)Nc1ccc(F)cc1Cl (stereo not drawn)	nt	nt	-2.3%	2.1%
O=C(Nc1ccccc1Cl)C1C2CCC3C(CCC21)C3(Cl)Cl (stereo not drawn)	-5.2%	6.2	-13.2%	0.7%
CCCn1c(NCCO)nc2ccccc21	-1.8%	-0.2	-8.9%	-10.2%
CCOc1cc(N2CCOCC2)c(OCC)cc1NC(=O)COC(=O)COc1cc(C)cc(C)c1	nt	nt	-8.0%	1.5%
CC(=O)c1ccc(OCC(O)CN2CCN(CC(O)COc3ccc(C(C)=O)cc3)CC2)cc1 (stereo not drawn)	-5.0%	3.6	2.5%	-0.8%
O=C(NCN1CCN(c2ccccc2)CC1)c1cnccn1	-0.2%	nt	-4.9%	-1.2%
O=C(Nc1ccccc1)c1ccccc1CC[N+](=O)[O-]	-3.4%	9.1	7.5%	0.7%
NC(=O)c1ccc(NC(=O)COC(=O)CCCN2C(=O)c3cccc4cccc(c34)C2=O)cc1	-20.5%	18.3	4.1%	1.3%
Cc1ccc(-c2nnn(CC(=O)N(c3ccccc3)C(C(=O)NCC3CCCO3)c3ccc(Cl)cc3)n2)cc1 (stereo not drawn)	-0.3%	-3.3	0.5%	0.7%
Cc1nn(-c2ccccc2)c(Cl)c1C(=O)Nc1ccccc1	-12.8%	-3.3	1.6%	2.0%
COc1ccc(CN2C(=O)CCC2(C)C(=O)NC2CCCC2)c(OC)c1 (stereo not drawn)	-1.5%	0.0	-1.3%	0.3%
Cc1onc(-c2ccccc2)c1C(=O)Nc1nc2c(s1)C(=O)CC(C)(C)C2	4.6%	-12.6	-10.8%	0.3%

The list is partial; rates above refer to the full screens.
